TRPV1 potentiator: potentiators of human vanilloid receptor 1 (TRPV1). 0.02% of 320,000 active. potentiation, % at 8.33 µM. Q8NER1. TRPV1-expressing cells, Fluo-8 calcium influx, capsaicin EC20 potentiation; host cell line not named in the record; control for the full effect not named in the record; active means potentiation above 80%; inconclusive means 30% to 80%; inactive means below 30%; also: 0% is about no effect
Target sequence (Q8NER1 whole entry, looked up): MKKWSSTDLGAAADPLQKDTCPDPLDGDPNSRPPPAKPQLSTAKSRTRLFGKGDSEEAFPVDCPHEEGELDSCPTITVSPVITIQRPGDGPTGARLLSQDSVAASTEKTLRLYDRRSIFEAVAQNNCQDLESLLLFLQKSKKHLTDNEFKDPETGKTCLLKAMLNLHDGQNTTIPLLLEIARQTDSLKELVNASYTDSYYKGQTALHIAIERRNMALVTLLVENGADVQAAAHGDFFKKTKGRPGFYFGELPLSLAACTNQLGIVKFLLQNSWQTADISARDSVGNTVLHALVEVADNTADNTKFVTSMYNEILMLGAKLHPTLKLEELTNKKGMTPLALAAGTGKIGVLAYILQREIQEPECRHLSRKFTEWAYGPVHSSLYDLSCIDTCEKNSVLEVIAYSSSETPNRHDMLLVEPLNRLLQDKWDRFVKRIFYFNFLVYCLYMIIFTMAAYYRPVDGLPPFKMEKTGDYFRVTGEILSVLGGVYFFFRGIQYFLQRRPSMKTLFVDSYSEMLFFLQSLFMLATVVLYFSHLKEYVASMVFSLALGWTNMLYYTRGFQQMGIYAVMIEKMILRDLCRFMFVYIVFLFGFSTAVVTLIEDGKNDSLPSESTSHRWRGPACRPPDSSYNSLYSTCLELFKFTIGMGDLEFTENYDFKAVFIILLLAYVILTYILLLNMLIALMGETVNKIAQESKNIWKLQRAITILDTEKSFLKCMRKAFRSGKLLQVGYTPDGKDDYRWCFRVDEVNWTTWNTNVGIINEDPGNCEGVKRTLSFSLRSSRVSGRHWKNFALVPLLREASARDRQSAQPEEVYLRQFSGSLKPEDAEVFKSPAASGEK
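Fluo-8 calcium influx in TRPV1-expressing cells, kinetic read (ex 480/em 520 nm). Compound added and read 3 min for agonist activity, followed by capsaicin at EC20 final and 2 min further read for enhancement.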
TRPML1 agonist: activates the human TRPML1 channel | Q9GZU1 | TRPML1-expressing cells, Ca2+ dye fluorescence, FDSS; host cell line not named in the record; reference of the full effect not given here | activation, % (no concentration beside the values) | 0.12% of 410,000 active; in the data active = activation above about 50%; inconclusive = about 30% to 50%; inactive = below about 30%; also: 0% is about no effect; the text of the record puts the active cut at 80%
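Cells: TRPML1-DL, 1X Tet inducer, ~16 h at 37 degrees C/5% CO2. Dye: ABD Ca8 no-wash + quencher, 45-90 min RT. Read: 10 s baseline, compound add, 110 s agonist phase; 54-4 EC80 (4uM final), 110 s antagonist phase.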
TRPML1 inh: blocks the human TRPML1 channel; Q9GZU1; TRPML1-inducible cells, Ca2+ dye fluorescence, FDSS; hits give low values; inhibition of EC80 agonist-evoked calcium signal; activity change, negative = inhibition, % (no concentration beside the values); 0.02% of 390,000 active; AID 624415; in the data active means activity change below about -50%; inconclusive means about -30% to -50%; inactive means above about -30%;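 also: stimulus is agonist 54-4 at its EC80 concentration; % is scaled to controls: 0 for no effect and ±100 for the full control effect; compound concentration not given in the record; the text of the record puts the active cut at -80%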
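Tet-induced TRPML1-DL cells loaded with Ca8 no-wash calcium dye were read kinetically on FDSS. Compound addition was followed by EC80 agonist 54-4 (4 uM final); inhibition was read over 110 s.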
Six1-Eya2 blk: Six1/Eya2 interaction inhibition. AlphaScreen GST-Six1/His-Eya2 binding, biochemical; hits give low values; control for the full effect not named in the record. activity change, % (test concentration not listed). 0.56% of 360,000 active; in the data active = activity change below about -65%; inconclusive = about -30% to -65%; inactive = above about -30%; also: % is scaled to controls: 0 for no effect and ±100 for the full control effect; compound concentration not given in the record
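AlphaScreen luminescence read after one hour at 37 °C in darkness. Pin-transferred compounds met GST-Six1 and His-Eya2 protein (5X stock 250 nM/500 nM) plus glutathione donor and Ni-chelate acceptor beads (5X, 50 ug/mL).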
CtBP-E1A inh: inhibitors of CtBP/E1A interaction | AlphaScreen GST-E1A/His-CtBP binding, 1536-well; hits give low values; control for the full effect not named in the record | activity change, % (test concentration not listed) | 0.49% of 340,000 active | AID 651724; in the data active means activity change below about -65%; inconclusive means about -30% to -65%; inactive means above about -30%; also: % is scaled to controls: 0 for no effect and ±100 for the full control effect; compound concentration not given in the record
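AlphaScreen with 125 nM GST-E1A and 125 nM His-CtBP (5X stocks) in Tris pH 8.0, 300 mM NaCl, BSA, Tween 20, TCEP. Compounds preincubated 2 h at 37 deg C, then glutathione donor/nickel acceptor beads added for 1 h at 37 deg C in dark.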
D2 PAM: human D2 receptor positive allosteric modulation; P14416; DiscoveRx D2 beta-arrestin cells, luminescence, 90 min; 100% = 57 uM dopamine signal; potentiation, % (test concentration not listed); 0.23% of 360,000 active; AID 624464; active = potentiation of 50% or more; inconclusive = 30% to 50%; inactive = 30% or less;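 also: compound concentration not given in the record; tested on top of an EC20 dose of dopamine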
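PathHunter D2 cells, attached overnight at 37 deg C, received compound in DMSO plus dopamine at EC20 (50 nM final) for 90 min at 37 deg C. Beta-arrestin recruitment was read as luminescence after 1 h with detection reagent at ambient temperature.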
* marks the source's active call; other numbers are inactive results; ? = inconclusive; / = no result given.

No. | mol | TRPV1 potentiator | TRPML1 agonist | TRPML1 inh | Six1-Eya2 blk | CtBP-E1A inh | D2 PAM
1 | NC(=O)C1(N2CCCCC2)CCN(CC(=O)Nc2ccccc2-c2ccccc2)CC1 | 3 | 0.3 | 7 | 1 | -3 | -18
2 | Clc1ccc(-c2nc(-c3ccncc3)no2)c(Cl)c1 | / | 3.1 | 29 | 2 | / | 4
3 | CCCOc1ccc(Cn2cnc3ccccc32)cc1 | 24 | 1.8 | 19 | -1 | -5 | 15
4 | CCC1CCC2(CC1)NC(=O)N(CC(=O)Nc1cccc(S(=O)(=O)N(C)c3ccccc3)c1)C2=O (stereo not given) | 4 | -0.9 | -1 | 5 | / | -7
5 | CNc1ncc(C(=O)c2ccc(Cl)c(Cl)c2)s1 | -13 | 0.2 | 23 | -2 | 3 | 4
6 | Cc1nn(-c2ccc(F)cc2)c(C)c1NS(=O)(=O)c1ccc2ccccc2c1 | 0 | 1.8 | 6 | -2 | 4 | -7
7 | Cc1cc(/C=N/NC(=O)C(O)(c2ccccc2)c2ccccc2)c(C)n1-c1cccc(C(=O)O)c1 | / | -0.2 | -10 | -18 | / | -9
8 | COc1ccc2ccn(C)c2c1 | -8 | -0.3 | -8 | 14 | -16 | -3
9 | CCCCC1Cc2[nH]c(=S)[nH]c(=O)c2C(c2ccc3ccccc3c2)O1 (stereo not given) | / | -0.8 | / | -7 | 1 | /
10 | COc1ccc(-n2ncc3c2CC(C)(C)CC3NC(=O)c2ccc(OC)o2)cc1 (stereo not given) | 1 | -0.1 | -19 | -5 | -8 | 11
11 | O=C1c2cccnc2Oc2ccc(Cl)cc2N1Cc1ccc(F)cc1 | -2 | -0.1 | -18 | 5 | 5 | 7
12 | CN1CCCN(C(=O)C2CCC(C(=O)N3CCCN(C)CC3)CC2)CC1 (stereo not given) | -1 | -0.1 | -12 | 2 | 10 | 13
13 | COCCN(CCOC)c1ncnc2c1cnn2-c1ccccc1 | -8 | 0.2 | -11 | 1 | 1 | -4
14 | C[C@H]1CN([C@@H](C)CO)C(=O)CCCn2cc(nn2)CO[C@@H]1CN(C)C(=O)OCc1ccccc1 | / | 0.9 | 4 | 13 | -23 | -4
15 | COc1cc(C)ccc1OCc1cc(C(=O)NCc2ccncc2)no1 | -27 | 0.9 | 1 | 8 | 4 | 1
16 | Cc1cccc(N2CC(C)Cn3c2nc2c3c(=O)n(CC(=O)OCc3ccccc3)c(=O)n2C)c1 (stereo not given) | -1 | 0.0 | 32 | -12 | -22 | -14
17 | CCOC(=O)c1cc(-c2ccco2)nc2c1c(C)nn2-c1cccc(Cl)c1 | 1 | -1.1 | -13 | 0 | 4 | -6
18 | CCN(CC)C(=O)C1=C(C)N(Cc2ccc(OC)cc2)C(=O)C(CC(=O)NCCc2ccccn2)C1 (stereo not given) | / | 1.9 | 0 | 10 | 0 | 3
19 | Cc1ccccc1-c1nc(S(=O)(=O)c2ccc(Cl)cc2)c(NCCN2CCOCC2)o1 | -9 | 1.6 | 74 | -20 | -20 | -24
20 | COc1ccc(Cl)cc1NS(=O)(=O)c1cccc(C(=O)NCC2CCCO2)c1 (stereo not given) | 18 | -0.4 | 6 | 1 | 0 | 13
21 | Cc1cccc(N=c2oc3cc(O)ccc3cc2C(N)=O)c1 | -8 | 0.6 | 10 | -23 | -19 | -6
22 | CC(C(=O)NCCS(=O)(=O)c1ccc(Br)cc1)S(=O)(=O)c1ccc(Cl)cc1 (stereo not given) | ? | 1.4 | -22 | 6 | -13 | -6
23 | Cc1nn(C)cc1/C=N/NC(=O)Cn1nnc(N)n1 | 11 | -0.2 | 12 | -3 | -1 | -6
24 | CC1CN(C(=O)COC(=O)CSc2ccc(C(N)=O)cc2[N+](=O)[O-])CC(C)O1 (stereo not given) | -4 | -0.9 | -6 | -5 | 3 | -3
25 | CCOC(=O)CNC(=O)Cn1cnc2sc(C)c(S(=O)(=O)N3CCOCC3)c2c1=O | 5 | -0.6 | -8 | 6 | 0 | -5
26 | CCc1ccc(S(=O)(=O)Nc2cc(SCC(=O)O)c(O)c3ccccc23)cc1 | 6 | -0.2 | 10 | -19 | / | -12
27 | O=C(Nc1ccc(Oc2ccccc2)cc1)N[C@@H](Cc1ccccc1)C(=O)O | 17 | 0.0 | 1 | -3 | 0 | 7
28 | CC(Nc1ccccc1)C(=O)Nc1ccc(F)cc1 (stereo not given) | ? | -0.9 | 9 | -1 | 3 | -8
29 | Cc1nc(-c2ccccc2)ccc1C(=O)O | -1 | 0.5 | 21 | 6 | 1 | -1
30 | O=CNc1ccc(S(=O)(=O)NCc2ccccc2)cc1 | 8 | 0.6 | -7 | 1 | -2 | 4
31 | COc1cc(C(=O)NCCSc2ccc(Cl)cc2)cc(OC)c1OC | 4 | 0.7 | 7 | -4 | / | -4
32 | Cc1ccc(C)c(NC(=O)CCC(=O)N/N=C/c2ccc[nH]2)c1 | 27 | 0.5 | -1 | -2 | -1 | -4
33 | CC(C)CCNC(=O)CN(C)S(=O)(=O)c1cccc2nsnc12 | 5 | 0.3 | 5 | -1 | 3 | -13
34 | O=C(Cc1ccccc1)c1ccc(N2CCOCC2)cc1 | / | 0.0 | -18 | -7 | 20 | -11
35 | CCc1ccccc1OCC(=O)Nc1nc(-c2cccnc2)cs1 | -6 | 0.9 | -4 | -27 | -12 | -6
36 | CCC(=O)NCCc1nc2cc(NC(=O)c3ccco3)ccc2n1C | 0 | 0.6 | 13 | 0 | 7 | -6
37 | COc1ccc(C2c3ccc(O)cc3Oc3ncn(CCN4CCOCC4)c(=N)c32)cc1 (stereo not given) | 3 | 0.6 | -2 | -8 | -2 | -5
38 | Cc1ccc(S(=O)(=O)/N=C(\N)Nc2nc(C)c3cc(C)ccc3n2)cc1 | 3 | 0.2 | 2 | -26 | -28 | 7
39 | O=C(NCCCN1CCOCC1)c1ccc2nc(Cc3ccccc3F)oc2c1 | 12 | 0.8 | 17 | -1 | 10 | 28
40 | Cc1ccc2c(COC(=O)C3CSC4(C)CCC(=O)N34)cc(=O)oc2c1C (stereo not given) | / | -0.5 | 5 | -6 | -5 | -4
41 | O=c1c2cc(NC(=S)NC3CCCC3)ccc2nc2n1CCCCC2 | -5 | 0.1 | -20 | 1 | -22 | -6
42 | Cc1ccccc1Nc1nc(Cl)nc(NC(C)(C)C)n1 | / | -0.1 | -2 | -8 | 4 | -11
43 | Cn1c(CN2CCCC2)nc2cc(NC(=O)c3cccs3)ccc21 | -2 | 0.9 | -11 | -2 | -2 | -19
44 | Cc1ccc(NC(=O)Cn2nc(C(=O)O)c3ccccc3c2=O)cc1S(=O)(=O)N1CCCCCC1 | / | 1.8 | 5 | -10 | 0 | -3
45 | COc1ccc(-c2cc(C(=O)NCc3ccco3)c3ccccc3n2)cc1OC | / | 0.9 | 22 | -5 | -3 | 2
46 | CC(CCc1ccccc1)OS(N)(=O)=O (stereo not given) | -3 | -0.9 | -4 | -1 | -1 | -4
47 | O=C(NCc1ccco1)c1ccc(Cn2c(=O)c3ccccc3n(Cc3cccc(Cl)c3)c2=O)cc1 | 13 | 3.1 | -25 | 2 | -15 | -15
48 | O=C(Cc1ccc(Br)cc1)Nc1cccc(Cl)c1 | -4 | -0.8 | 21 | 12 | 5 | -7
49 | Cc1ccc(Cl)c2c1NC(=O)C2(O)CC(=O)c1ccc(F)cc1 (stereo not given) | 22 | 1.7 | -15 | 1 | 3 | -8
50 | O=C(c1ccc([N+](=O)[O-])cc1)N(c1ccccn1)c1ccccn1 | 5 | 0.3 | -24 | 11 | -6 | -4

Following part
No. | mol | TRPV1 potentiator | TRPML1 agonist | TRPML1 inh | Six1-Eya2 blk | CtBP-E1A inh | D2 PAM
51 | COc1cc(C(=O)NCc2nnc(SCC(=O)Nc3nccs3)o2)cc(OC)c1OC | 28 | 0.5 | -20 | -84* | -78* | -2
52 | C#CCCOC(=O)N1C2=NC(C(=O)OC)=C(C(=O)OC)[C@@H]3N(Cc4ccccc4)c4ccccc4[C@]23C[C@H]1C(=O)OC | -28 | 0.5 | 32 | -7 | -11 | -8
53 | CCCC(=O)Nc1cc(-c2nn(C)c(=O)c3ccccc23)ccc1N1CCCCC1 | / | 3.1 | 31 | 0 | 0 | -4
54 | OCC[C@@H]1C[C@H](O)[C@@H](O)[C@]2(OCc3ccccc32)O1 | -13 | 0.1 | -13 | 8 | 6 | -7
55 | Cc1n[nH]c(C)c1CCCCOc1ccccc1[N+](=O)[O-] | -5 | -1.2 | -4 | -9 | / | -1
56 | Nc1nc(SCC(=O)N2CCN(c3ccc(F)cc3)CC2)n[nH]1 | 0 | -0.3 | -14 | -1 | 0 | 10
57 | O=C(c1cc2ccccc2oc1=O)N(c1ccc(Cl)cc1)C1C=CS(=O)(=O)C1 (stereo not given) | 2 | 1.9 | -12 | 1 | 10 | -13
58 | Cc1cccc(NC(=S)N2CCN(Cc3ccccc3)CC2)c1C | 1 | -0.6 | 25 | 1 | 3 | -22
59 | COCCNC(=O)c1ccccc1NC(=O)c1ccc(OC)c(OC)c1 | -6 | 0.6 | -16 | 3 | 6 | 2
60 | CCCCC1CCC(C(=O)N2CCOCC2)CC1 (stereo not given) | -5 | -0.3 | 15 | -1 | 4 | -4
61 | COc1ccc(OCC(O)CNC(=O)c2ccc(C)cc2)cc1 (stereo not given) | / | 0.0 | 4 | 6 | 6 | -2
62 | COc1ccc(CCNC(=O)c2nnc(Cc3c(F)cccc3Cl)o2)cc1OC | -29 | -0.1 | 10 | -9 | -8 | -8
63 | Cc1ccc(-n2c(Cc3cccc4ccccc34)n[nH]c2=S)c(C)c1 | 7 | 1.7 | 4 | -1 | -13 | -4
64 | O=C(COC(=O)COc1ccc(Cl)cc1)NC1CCCC1 | 24 | 0.0 | -7 | 5 | / | -6
65 | O=C(/C=C/c1cc(Br)ccc1F)OCC(=O)N1CCCC1 | -23 | 1.6 | 14 | ? | -6 | -9
66 | Cc1ccc(C(=O)CCC(=O)NN2C(=O)NC3(CCCCC3)C2=O)cc1 | -1 | 1.1 | 4 | -1 | 10 | -21
67 | CCOc1ccc(CN2CCC(C(=O)N3CCN(c4ccccc4F)CC3)CC2)cc1OC | 1 | -0.4 | -13 | -2 | 1 | 1
68 | Cc1ccccc1OCCCC(=O)Nc1ccc2c(c1)OCO2 | -6 | 1.6 | -7 | -5 | -8 | -10
69 | CCOC(=O)c1c(C#N)cnn1-c1ccc(C)cc1 | 8 | 1.3 | 10 | 11 | 5 | 8
70 | Cc1cc(C)cc(NC(=O)NNC(=O)c2cc3occc3[nH]2)c1 | -2 | 0.5 | -18 | -8 | -3 | -3

Sorted by heavy-atom count (lowest first): part of the list above
No. | mol | TRPV1 potentiator | TRPML1 agonist | TRPML1 inh | Six1-Eya2 blk | CtBP-E1A inh | D2 PAM
60 | CCCCC1CCC(C(=O)N2CCOCC2)CC1 (stereo not given) | -5 | -0.3 | 15 | -1 | 4 | -4
70 | Cc1cc(C)cc(NC(=O)NNC(=O)c2cc3occc3[nH]2)c1 | -2 | 0.5 | -18 | -8 | -3 | -3
66 | Cc1ccc(C(=O)CCC(=O)NN2C(=O)NC3(CCCCC3)C2=O)cc1 | -1 | 1.1 | 4 | -1 | 10 | -21

Source: PubChem BioAssay (National Center for Advancing Translational Sciences (NCATS))

Rows were taken by chance. Share with any hit: about 0.95%.
